Cruzain Triton – qHTS Assay for Promiscuous and Specific Inhibitors of Cruzain (with detergent); 200,000 tested, 0.43% active; Potency, µM, for inactives: max response, negative = inhibition, hits mostly inhibitors; Cruzipain (Trypanosoma cruzi), P25779; purified cruzain, Z-FR-AMC fluorescence, 0.01% Triton;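 also: plate controls were neutral wells for no effect and buffer without enzyme for full effect; nearly all actives have a fitted effect of over 40% in size; top concentration of the series not given in the record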
Target sequence (P25779 123-467 limits assumed): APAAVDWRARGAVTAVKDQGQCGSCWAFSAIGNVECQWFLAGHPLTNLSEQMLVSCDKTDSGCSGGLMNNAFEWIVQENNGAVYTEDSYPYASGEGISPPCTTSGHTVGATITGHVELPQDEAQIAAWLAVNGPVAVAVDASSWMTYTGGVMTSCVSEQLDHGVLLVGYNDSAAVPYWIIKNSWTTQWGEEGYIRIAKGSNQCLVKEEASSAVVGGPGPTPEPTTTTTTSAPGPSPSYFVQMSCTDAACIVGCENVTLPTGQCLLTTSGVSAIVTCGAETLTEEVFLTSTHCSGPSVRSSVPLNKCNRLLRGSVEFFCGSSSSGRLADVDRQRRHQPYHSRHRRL
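Cruzain (1.5 nM) preincubated 15 min at RT with compound in 100 mM sodium acetate pH 5.5, 5 mM DTT, 0.01% Triton X-100. Reaction started with 2 uM Z-FR-AMC; AMC fluorescence (ex 360/em 450 nm) change over 60 s gave rate.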
NS1 inh – qHTS Assay for Inhibitors of Influenza NS1 Protein Function. S. cerevisiae slowed by influenza A NS1, growth recovery by OD600. 270,000 tested, 0.4% active. Potency, µM (series often up to 46.1 µM), for inactives: top-dose activity, positive = more growth. AID 2326, 2010; active means well fitted rising curve with a large enough effect; inconclusive means small, poorly fitted or top-dose-only effect; inactive means no such curve, though single readings can be large or run the other way; also: nearly all actives have a fitted effect of over 50% in size
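Recovery from NS1-induced slow growth read by OD600 in budding yeast switched to galactose assay medium (pH 6.0, -URA) at 1:100 dilution. Compound 23 nl per well; the matching strain lacking NS1 serves as control.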
RE007 growth inh – qHTS Assay for Inhibitors of the HIV-1 protein Vpr. S. pombe RE007 Vpr strain, BacTiter-Glo ATP luminescence, 24 h; control for the full effect not named in the record. Potency, µM (doses to about 92.2 µM), for inactives: at the top dose activity change, negative = less growth. 360,000 tested, 0.21% active; active = well fitted falling curve with a large enough effect; inconclusive = small, poorly fitted or top-dose-only effect; inactive = no such curve, though single readings can be large or run the other way;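 also: % is scaled to controls: 0 for no effect and ±100 for the full control effect; nearly all actives have a fitted effect of over 50% in size; the assay follows cell death caused by Vpr and the record does not say whether a fall means rescue or toxicity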
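Fission yeast strain RE007, carrying one chromosomally integrated HIV-1 vpr copy, was seeded at OD 0.01 in PMG+AL medium with 23 nL pinned compound. After 24 h at 30 °C and 99% humidity, viability was read by BacTiter-Glo luminescence.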
MARV entry inh – qHTS for inhibitors of binding or entry into cells for Marburg Virus; 300,000 tested, 1.8% active; Potency, µM (series often up to 37.8 µM), inactives show at the top dose activity change, negative = inhibition, usual class: inhibitors; Marburg virus pseudotyped entry inhibition, cell reporter; control for the full effect not named in the record; about a third of the inactives were read at about 46 µM; active = well fitted inhibition curve with a large enough effect; inconclusive = small, poorly fitted or top-dose-only effect, or effect the other way; inactive = flat fitted curve, though single readings scatter; tested in HEK293 cells; about a fifth of its hits are not listed in these tables; also: % is scaled to controls: 0 for no effect and ±100 for the full control effect; luciferase read-out
SARS PLP yeast – qHTS of Yeast-based Assay for SARS-CoV PLP. S. cerevisiae expressing SARS-CoV PLpro, growth rescue; control for the full effect not named in the record. Potency, µM (titrated, usually from 32.9 µM), for inactives: top-dose activity, positive = growth rescue. 330,000 tested, 0.19% active. AID 485353, 2010; active means well fitted rising curve with a large enough effect; inconclusive means small, poorly fitted or top-dose-only effect; inactive means no such curve, though single readings can be large or run the other way; also: 0% is about no effect; nearly all actives have a fitted effect of over 55% in size; growth read by luminescence after 48 h
LASV entry inh – qHTS for Inhibitors of binding or entry into cells for Lassa Virus; Lassa virus pseudotype entry inhibition, cell reporter; control for the full effect not named in the record; Potency, µM (highest dose often 37.9 µM), without a hit: at the top dose activity change, negative = inhibition, usual class: inhibitors; 300,000 tested, 1.2% active; active means well fitted inhibition curve with a large enough effect; inconclusive means small, poorly fitted or top-dose-only effect, or effect the other way; inactive means flat fitted curve, though single readings scatter; tested in HEK293 cells; also: % is scaled to controls: 0 for no effect and ±100 for the full control effect; nearly all actives have a fitted effect of over 50% in size; luciferase read-out
2A StopGo – High Throughput Screening for Foot and Mouth Disease Virus Antivirals; human cells with a luciferase reporter of 2A StopGo recoding; control for the full effect not named in the record; Potency, µM (titrated, usually from 57.9 µM), inactives show at the highest dose signal change, negative = less light; 410,000 tested, 1.2% active; AID 1159524, 2015; active = well fitted falling curve with a large enough effect; inconclusive = small, poorly fitted or top-dose-only effect; inactive = no such curve, though single readings can be large or run the other way; tested in HEK293T cells; also: % is scaled to controls: 0 for no effect and ±100 for the full control effect; nearly all actives have a fitted effect of over 45% in size; luciferase light after 4 h
Cruzain noTriton – qHTS Assay for Promiscuous and Specific Inhibitors of Cruzain (without detergent); Cruzipain (Trypanosoma cruzi), P25779; purified cruzain, Z-FR-AMC fluorescence, no detergent; Potency, µM, for the others: max response, negative = inhibition, actives largely listed as inhibitors; 200,000 tested, 2.3% active;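 also: plate controls were enzyme without inhibitor for no effect and buffer without enzyme for full effect; nearly all actives have a fitted effect of over 40% in size; top concentration of the series not given in the record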
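Purified cruzain at 1.5 nM, pre-incubated 15 min with compound at room temperature in 100 mM sodium acetate pH 5.5, 5 mM DTT, 0.00005% Triton X-100. Reaction started with 2 uM Z-FR-AMC; AMC fluorescence increase over 60 s gives rate.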
An asterisk follows results filed as active; ? = inconclusive; / = no result given; & = joins results of further samples; [ ] = remark or other dose. Unless noted, calls follow the shape of the dose curve; as a rule, active = well fitted curve in the direction sought with a large enough effect; inconclusive = small, poorly fitted or top-dose-only effect, or another doubt; inactive = no such curve, though single readings can be large; an effect the other way counts as inactive or inconclusive. Potency is read from the fitted curve at half-maximal effect. Rows are unselected (roughly 4.7% active in at least one column).

SMILES	Cruzain Triton	NS1 inh	RE007 growth inh	MARV entry inh	SARS PLP yeast	LASV entry inh	2A StopGo	Cruzain noTriton
CC(C)C(=O)NC(c1ccco1)c1c(O)ccc2ccccc12 (stereo not given)	1.0%	11%	15%	-25%	4%	0%	-13%	-1%
O=C(NNC(=O)c1ccncc1)Nc1ccc(Br)cc1	/	/	3%	-2%[46.1 µM]	/	0%[46.1 µM]	15%	/
COc1ccc(N2C(=O)CC(N3CCN(c4ccccc4OC)CC3)C2=O)cc1 (stereo not given)	/	-2%	-26%	/	-8%	/	1%	/
Cc1c(Cl)cccc1NC(=O)C1CCCN(c2nnc(-n3c(C)ccc3C)s2)C1 (stereo not given)	-5.8%	/	/	6%[46.1 µM]	/	-2%[46.1 µM]	-26%	-11%
COc1ccc(N2CC(O)=C(c3nc4ccccc4s3)C2=N)cc1	5.7%	-30%	3%	?	-5%	?	81%[activator]	6%
CN(C(=O)COC(=O)Cc1c(Cl)cccc1Cl)c1c(N)n(Cc2ccccc2)c(=O)[nH]c1=O	/	/	-24%	6%	1%	?	-26%	/
COc1ccccc1NC(=O)N1CCN(c2ccccc2F)CC1	1.4%	-39%	-3%	?	-9%	-1%	7%	3%
CCC(OC(=O)c1cccs1)C(=O)NCc1ccc(C)cc1 (stereo not given)	/	-5%	0%	30%[46.1 µM]	0%	-3%[46.1 µM]	8%	/
C=CCn1c(O)c(C(=O)CCCCCC)c(=O)[nH]c1=O	0.1%	-11%	-3%	?	1%	-27%	-4%	-6%
Cc1c(N)c(=O)n(-c2ccccc2)n1C	5.2%&3.7%	/	7%[18.4 µM]	/	/	/	-8%&0%	-4%&-14%
O=C(CCSCCC(=O)NCc1ccco1)NCc1ccco1	-7.0%	-3%	89%	?	2%	4%	-22%	-20%
Cc1nc2sccn2c(=O)c1S(=O)(=O)Nc1cc(Cl)ccc1O	-12%	/	/	/	/	4%[46.1 µM]	65%[activator]	-1%

Reprinted from the entries so far for reference:
SMILES	Cruzain Triton	NS1 inh	RE007 growth inh	MARV entry inh	SARS PLP yeast	LASV entry inh	2A StopGo	Cruzain noTriton
O=C(CCSCCC(=O)NCc1ccco1)NCc1ccco1	-7.0%	-3%	89%	?	2%	4%	-22%	-20%
Cc1nc2sccn2c(=O)c1S(=O)(=O)Nc1cc(Cl)ccc1O	-12%	/	/	/	/	4%[46.1 µM]	65%[activator]	-1%

(more compounds)
SMILES	Cruzain Triton	NS1 inh	RE007 growth inh	MARV entry inh	SARS PLP yeast	LASV entry inh	2A StopGo	Cruzain noTriton
Cc1ccc2nc(N3CCC(C(=O)N4CCN(c5cccc(Cl)c5)CC4)CC3)[nH]c2c1	-5.6%	/	/	/	/	?	?	3%
CC(/C=N/NC(=O)c1cc(-c2ccccc2)nc2ccccc12)=C\c1ccco1	-9.4%	22%	-19%	?	-1%	?	0%	?
N=c1c2c(-c3ccccc3)c(-c3ccccc3)n(Cc3ccco3)c2ncn1CCCN1CCOCC1	/	/	23%	7.1µM*	0%	-8%	-14%	/
CC(=O)N/C(=C/c1ccccc1)C(=O)NCCO	-2.1%	6%	21%	1%	6%	18%	0%	10%
CCc1ccc(NC(=O)C2CCCN2S(=O)(=O)c2ccc3c(c2)n(C)c(=O)c(=O)n3C)cc1 (stereo not given)	-4.2%	-11%	15%	-17%&-17%[46.1 µM]	-1%	6%[46.1 µM]	-12%&-15%	7%
CCn1c(Cc2ccccc2)nnc1SCC(=O)Nc1ccc(N)cc1	-0.7%	0%	-4%	-19%	3%	1%	/	-2%
Cc1cc(C)c(C)c(OCC(=O)NCc2nc(-c3ccccc3)no2)c1	-15%	-62%	-6%	-15%	-8%	-1%	-21%	9%
CC(=O)c1ccc(NC(=O)CCc2c(C)nn(-c3ccc4nnc(C)n4n3)c2C)cc1	-1.6%	/	/	/	/	-19%[46.1 µM]	-6%	-6%
O=C1CC(N2CCC(n3c(=O)[nH]c4ccccc43)CC2)C(=O)N1c1ccc(F)cc1 (stereo not given)	-4.0%	-43%	?	?	-30%	0%	?	0%
O=C(O)c1ccccc1Nc1ccc2nonc2c1[N+](=O)[O-]	/	-3%	-5%	/	0%	/	7%	/
CCc1cc2c(=O)n(-c3ccccc3)c(SCC(=O)O)nc2s1	/	22%	9%	32%	6%	9%	-10%	/
CCOc1ccc(NC(=O)CSc2nnc(NC(=O)C3CC3)s2)cc1	/	-7%	-11%	-6%[46.1 µM]	-3%	/	11%	/
Cc1cc(C(=O)CSc2nnnn2-c2ccccc2)c(C)n1-c1ccc2c(c1)OCO2	-3.3%	?	11%	?	7%	6.5µM*	-26%	3.2µM*
CCC1Oc2ccccc2N(CC(=O)NCCCN2CCCC2)C1=O (stereo not given)	/	2%	2%	/	2%	/	-6%	/
COc1ccc(N(C(=O)/C=C/c2ccc(OC)c(OC)c2)C2=CC3CCC(C2)N3C)cc1 (stereo not given)	/	/	-13%	-17%[46.1 µM]	2%	-12%	-1%	/
Cn1cc(C=C2C(=O)OC3(CCCCC3)OC2=O)c2ccccc21	/	2%	-9%	8%	-1%	20%	-1%	/
CCN(CC)c1ccc(/C=N/OC(C)C(=O)Nc2ccc(C)cc2)cc1 (stereo not given)	-8.0%	12%	6%	-1%	-30%	?	-30%	0%
O=C(NNS(=O)(=O)c1ccc(F)c(Cl)c1)c1cccc(S(=O)(=O)N2CCOCC2)c1	-0.7%	2%	-22%	-1%	-12%	-7%	78%[activator]	5%
O=C1c2oc3ccccc3c(=O)c2C(c2cccc(O)c2)N1Cc1ccc(F)cc1 (stereo not given)	-6.6%	/	/	-8%[46.1 µM]	/	-4%[46.1 µM]	-16%	-2%
O=C(NCCCN1CCCC1=O)c1ccc2c(c1)ncn2C1CCCCC1	1.7%	-19%	2%	2%	4%	0%	-9%	-1%
Cn1cnnc1SCC(=O)NC(=O)NC1CCCC1	1.7%	-2%	-7%	-3%	0%	-16%	-4%	-1%
Cc1cccc(N2C(N)=C(C#N)C(C#N)(C#N)C2c2ccccc2)c1 (stereo not given)	-21%	-47%	10%	-25%	/	?	40µM*	-11%
CS(=O)(=O)N1CCn2c1nc1ccccc12	/	4%	2%	12%[46.1 µM]	1%	0%	14%	/
COc1ccc(C(=O)OCC(=O)NC(=O)NC2CCCC2)c(OC)c1	/	/	-11%	?	-4%	-19%	0%	/
Cc1ccc2[nH]c(=O)c(CN(CC3CCCO3)C(=O)c3ccco3)cc2c1 (stereo not given)	-2.1%	-4%	/	/	2%	/	/	1%
CN(C)S(=O)(=O)Nc1ccc(-c2cn3ccsc3n2)cc1	1.7%	/	/	/	/	30%[46.1 µM]	70%[activator]	-8%
O=C(NCc1ccccc1)c1ccc(-c2ccccc2C(F)(F)F)o1	-3.7%&-7.3%	-25%	-10%	?	-2%	2.3µM*	52%[activator]	6%&-1%
Nc1nnc(SCc2cc3c(cc2Cl)OCO3)s1	-0.2%	-36%	12%	30%	-10%	-3%	35%[activator]	-4%
CCC(C)(C)C1CCc2c(sc(NC(=O)c3ccccc3C(=O)O)c2C#N)C1 (stereo not given)	/	9%	-19%	?	1%	-20%[46.1 µM]	-3%	/
CN(C)CCOC(=O)Cc1ccc(Cl)cc1	5.7%	5%	-2%	8%&8%	-2%	0%	0%	0%
O=C(CSc1nnc(NC(=O)C2CCC2)s1)Nc1ccc(N2CCOCC2)cc1	-2.1%	3%	-11%	-15%	-1%	-8%	-12%	-6%
Cc1oc(CC(C)C)cc1C(=O)NCCCC(=O)O	/	4%	-8%	/	1%	/	-1%	/
CCOC(=O)N1CCC(NC(=O)c2cnn(-c3ccc(F)cc3)c2-n2cccc2)CC1	-1.9%	/	/	/	/	13%[46.1 µM]	-34%	5%
COc1ccc(Nc2nc(N3CCN(S(C)(=O)=O)CC3)nc3ccccc23)c(OC)c1	/	2%	1%	-23%[46.1 µM]	-2%	-28%[46.1 µM]	-9%	/
Cc1ccc(C(=O)Nc2ncc3c(Cl)cccc3n2)cc1	-1.4%	-23%	?	?	-16%	?	10µM*	-8%
O=C(NCc1ccccn1)c1cnc2sccn2c1=O	-2.4%	4%	17%	1%[46.1 µM]	-4%	-15%	1%	-6%
Cc1ccc(C(C(=O)NCc2ccco2)N(C(=O)CNC(=O)c2cccs2)c2c(C)cc(C)cc2C)cc1 (stereo not given)	3.5%	0%	-3%	?	2%	?	11%	?
CC(NC(=O)c1ccc(NS(C)(=O)=O)cc1)c1ccccc1 (stereo not given)	-1.8%	-1%	6%	?	12%	11%	-3%	-1%
COc1ccc(/C=N/NC(=O)c2ccc3c(c2)OCCO3)cc1[N+](=O)[O-]	-1.9%	8%	-12%	19%	0%	13%	-5%	-6%
COC(=O)c1cc(NC(=O)CN(C)C2CCS(=O)(=O)C2)cc(C(=O)OC)c1 (stereo not given)	/	/	30%	1%	-5%	17%	-12%	/
COc1ccnc2c1c(=O)n(Cc1c(F)cccc1Cl)c(=O)n2C	/	-1%	0%	/	-8%	/	4%	/
CON/C=C(\C=Nc1ccc(F)cc1)c1ncc(C(F)(F)F)cc1Cl	-2.2%	2%	-24%[3.69 µM]	-4%	-22%	13%	-24%	-3%
c1ccc(OCc2nc3c4c(ncn3n2)-c2ccccc2CC42CCCC2)cc1	-2.6%	8%	1%	0%	13%	-2%	?	-15%
O=C(NCCCO)/C(=C/c1ccco1)NC(=O)c1ccc(Br)o1	-5.0%	2%	2%	-6%	16%	1%	-8%	-3%
O=C1C(=O)c2ccccc2-c2ccccc21	?	-39%	?	/	-54%	/	5.6µM*	?
COc1ccc(/C=N/NC(=O)C(=O)Nc2ccccn2)cc1OC	-4.1%	4%	18%	8%	-7%	18%	-23%	-15%
c1cnn(-c2nc(N3CCOCC3)nc(N3CCOCC3)n2)c1	1.8%	-1%	-15%[3.69 µM]	?	6%	?	?	-2%

Bioassay records: PubChem, National Center for Advancing Translational Sciences (NCATS)
